HIV TAR-Tat – HIV-1 TAR-Tat binding disruption; HIV-1 TAR RNA, Tat peptide displacement FRET; active compounds read high; AID 1259389; z-score (no concentration beside the values); 100,000 compounds, 0.6% hits;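 further: score is relative to mean and SD of negative controls; some compounds called inactive have numbers as strong as hits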
CDC25B CDK2 inh – human CDC25B-CDK2/CyclinA binding inhibition. HTRF CDC25B-CDK2/CyclinA binding, anti-His/anti-Flag; active compounds read high. AID 1259370. P30305+P24941. 94,000 compounds, 0.72% hits. z-score (test concentration not listed);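 further: score is relative to mean and SD of negative controls; strong numbers were not always called active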
Numbers without * were called inactive; . = no result given.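 How the source made its calls: active means z-score from 3 up in half or more of its runs; inactive means the rest.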

| structure | CDC25B CDK2 inh | HIV TAR-Tat |
| --- | --- | --- |
| Cc1nn(-c2nc3ccccc3o2)c2c1C(c1c(F)cccc1F)CC(=O)N2 (centres undefined) | . | 1.1 |
| CCOC(=O)c1c(NC(=O)N2CC(C)Oc3ccc(C)cc32)sc2c1CCCC2 (centres undefined) | . | 1.6 |
| CCSC1=N/C(=C\c2cccc(F)c2)C(=O)S1 | 0 | -0.39 |
| CCNC(=O)c1cnc2sc(N3CCOCC3)nn2c1=O | . | 0.33 |
| CCCN1CCN(S(=O)(=O)c2ccc(-c3cc(C(F)(F)F)on3)s2)CC1 | . | 0.62 |
| Cc1csc(NC(=O)CN(C)S(=O)(=O)c2ccc3c(c2)CCC(=O)N3)n1 | -2.1 | . |
| CNC(=O)c1c(NC(=O)c2ccc(OC)c(OC)c2)sc2c1CCC2 | . | 0.21 |
| O=C(CN1CCN(C2CCCCC2)C(=O)C1=O)NC1CCCC1 | . | 0.89 |
| O=C1CC(Sc2nnc(-c3ccccc3O)o2)C(=O)N1c1ccccc1 (centres undefined) | -2.8 | 1.6 |
| CCCCCOC(=O)C1=C(C)NC2=C(C(=O)CCC2)C1c1ccccc1OC(C)C (centres undefined) | -0.79 | 1.6 |
| Cc1cn2c(=O)cc(CSc3n[nH]c(-c4ccccc4C)n3)nc2s1 | . | 0.98 |
| CCOC(=O)c1sc2ccccc2c1S(=O)(=O)Nc1ccc(N(C)C)cc1 | . | -0.13 |
| O=C(NCc1ccncc1)c1nnc(-c2ccc3c(c2)OCO3)o1 | -1.3 | 0.88 |
| Cn1c(SCC(=O)c2ccc(F)cc2)nnc1-c1ccc2c(c1)OCO2 | . | 1.3 |
| O=C1c2oc3ccc(Cl)cc3c(=O)c2C(c2cccc(O)c2)N1Cc1ccc(F)cc1 (centres undefined) | -0.11 | 2.4 |
| O=c1[nH]c2ccc(Cl)cc2[nH]c1=O | -1.6 | . |
| CSCCC(NS(=O)(=O)c1cccs1)C(=O)O (centres undefined) | -1.2 | . |
| Cc1nn(-c2ccccc2)nc1CNC(=O)c1ncoc1-c1ccccc1 | -0.92 | . |
| O=C(Nc1ccc2c(c1)OCO2)C(=S)NCc1ccccc1 | -1.5 | . |
| CC(C)(C)C1CCC2(CC1)SCC(=O)N2c1ccccc1 (centres undefined) | -1.2 | . |
| Clc1cccc(CN=C2Nc3ccccc3NC23CCNCC3)c1 | . | 0.32 |
| C=CCN(Cc1nc(-c2ccc(OC)c(OC)c2)no1)S(=O)(=O)c1ccc(OC)cc1 | -1.5 | 2.8 |
| COC(=O)c1cc(-c2ccc(OC)cc2)c2c(=O)n(C)c(=O)n(C)c2n1 | 2.2 | 2.3 |
| COCCNS(=O)(=O)c1ccc2c(c1)n(C)c(=O)n2C | -0.08 | 0.79 |
| CC12N=NCC1C(=O)N(c1ccc(F)cc1)C2=O (centres undefined) | -2.3 | -0.31 |
| CCc1nn2c(=O)cc(CSc3nnc(-c4cccc(F)c4)n3C)nc2s1 | . | 0 |
| Cc1nc(-c2ccc(Cl)cc2)sc1CCNS(C)(=O)=O | . | 0.44 |
| CCOc1ccc(-c2cc(O)cc3sc(=O)oc23)cc1 | -1.8 | 1.5 |
| CC[n+]1c(/C=C/Nc2ccccc2)sc2c(C)c(C)sc21 | -1.8 | -0.28 |
| Cc1cc(C)nc(NC(=O)C(C)(C)Oc2ccc(Cl)cc2)n1 | 0.52 | 0.07 |
| O=C(C1c2ccccc2C(=O)N2CCc3ccccc3C12)N1CCN(c2ccc(F)cc2)CC1 (centres undefined) | -0.23 | . |
| Cc1ccc(S(=O)(=O)NCCc2csc3nc(-c4ccc(F)cc4)nn23)cc1C | . | 1.7 |
| CC(C)C1Nc2ccccc2S(=O)(=O)N1C (centres undefined) | . | 1 |
| c1ccc(CCN2Cc3ccccc3C2)cc1 | -0.49 | 0.66 |
| Cc1ccc(-c2cnc(C3CC3)o2)cc1S(=O)(=O)Nc1cccc(Cl)c1C | . | 0.66 |
| O=C(CSc1nnc(-c2cccnc2)n1-c1ccc(Br)cc1)c1c[nH]c2ccccc12 | . | 1.8 |
| O=C(CCc1nc(-c2ccc(Cl)cc2)no1)Nc1nncs1 | -0.87 | -0.59 |
| CC(C)CC(NS(=O)(=O)c1ccc2c(c1)oc(=O)n2C)C(=O)NC1CCCc2ccccc21 (centres undefined) | -0.9 | 1.8 |
| Cc1nnsc1C(=O)Nc1nnc(SCC(=O)c2ccccc2)s1 | -1.1 | 1.4 |
| O=C(NCCCN1CCCC1=O)c1cnn2c(C(F)(F)F)cc(-c3ccccc3)nc12 | . | 1.8 |
| Cn1cccc1-c1cc2n(n1)CCCN2C(=O)CCC(=O)N1CCc2ccccc2C1 | . | 1.7 |
| COc1ccc(OCc2cn3cccnc3n2)cc1 | . | 0.86 |
| CCOc1ccc(-n2nnnc2CNC(=O)NC2CCCCC2)cc1 | . | 1.6 |
| CC(C)(C)NC1CCCCC1NS(=O)(=O)c1ccccc1 (centres undefined) | -1.4 | 0.14 |
| O=c1c2c(-c3ccc(Cl)cc3)csc2ncn1C1CCCCC1 | -0.96 | -0.01 |
| CC1=C(c2ccc(F)cc2)S(=O)(=O)NC1=NCCCc1ccccc1 | . | 0.32 |
| C=CCNc1oc(-c2ccccc2)nc1S(=O)(=O)c1ccc(Br)cc1 | . | 1.4 |
| O=C(CN1C(=O)C(=O)c2ccccc21)Nc1ccccc1Cl | -0.73 | 1.5 |
| c1ccc(C2CC(c3cccs3)n3nnnc3N2)cc1 (centres undefined) | 0.12 | . |
| CN1OC(COC(=O)c2cc(Cl)cc(Cl)c2)CC12C1CC3CC(C1)CC2C3 (centres undefined) | -1.8 | . |

Further compounds
| structure | CDC25B CDK2 inh | HIV TAR-Tat |
| --- | --- | --- |
| O=S(=O)(Cc1nc(-c2ccc(Cl)cc2)cs1)c1ccccn1 | -0.39 | . |
| Nc1cc(-c2ccccc2)nn1S(=O)(=O)c1ccccc1 | 0.63 | 0.93 |
| O=c1c(N2CCN(c3ccc(F)cc3)CC2)csc2ccccc12 | . | 1.5 |
| COc1cc(C2Nc3ccccc3NC3=C2C(=O)CC(c2cccs2)C3)cc(Br)c1O (centres undefined) | -1.4 | -1 |
| Cc1cc(O)c(C(C)C)cc1NS(=O)(=O)c1ccccc1 | -1.5 | 1.7 |
| C=CCCCCCCCCCCCC(O)CC(O)COC(C)=O (centres undefined) (tested in a mixture with another compound) | . | -0.09 |
| CCOC(=O)C1=C(c2ccccc2)NC(SCC(=O)c2ccccc2)=C(C#N)C1c1ccco1 (centres undefined) | -0.25 | -0.22 |
| CCc1nnc(NC(=O)CSc2nc3c(c(=O)n2CCOC)SC(C)C3)s1 (centres undefined) | -2.3 | . |
| CCOc1ccc(-n2[nH]nnc2=S)cc1 | -1.6 | . |
| O=C1C2=C(C(c3ccccc3)=NCCN2)C(c2cccc(F)c2)N1c1ccccc1 (centres undefined) | -1.1 | . |
| c1ccc(CCNc2nnns2)cc1 | -3.3 | . |
| Cc1nnsc1-c1nnc(-c2ccccc2C(F)(F)F)o1 | -0.74 | . |
| Cc1ccc(S(=O)(=O)NCCc2ccc(S(N)(=O)=O)cc2)cc1 | -1.6 | -1.4 |
| COc1c(OC)c2occc2c2oc(=O)ccc12 | . | 2.5 |
| CCCc1cc(=O)[nH]c(SCC(=O)N2CCN(c3ccccc3)CC2)n1 | -1.3 | . |
| CC1CCc2c(sc3nc(CCC(=O)NCCN4CCOCC4)[nH]c(=O)c23)C1 (centres undefined) | . | -1.4 |
| CCc1ccc(-c2cc(C)no2)cc1S(=O)(=O)N(CC)Cc1ccccc1 | . | 0.12 |
| Cn1ccnc1SCC(=O)Nc1ccccc1 | -0.8 | 1.6 |
| Fc1ccc(-c2nnn3c2nc(N2CCCC2)c2ccccc23)cc1 | -0.58 | 1.8 |
| N#C/C(=C\c1c[nH]c2ccccc12)c1nc2ccccc2[nH]1 | -1.5 | . |
| CSc1nc2c(c(=O)n1C1CCOC(C)(C)C1)C1(CCCC1)Cc1ccccc1-2 (centres undefined) | -1.2 | 1.7 |
| O=C(Nc1ccc(Cl)c(Cl)c1Cl)c1ccco1 | -2 | . |
| CCOCCOC(=O)C1=C(C)NC2=C(C(=O)CC(C)(C)C2)C1c1cc(Cl)c(O)c(OC)c1 (centres undefined) | -0.03 | 2.7 |
| CCCc1c(O)ccc2c1OC(C)(CCC(=O)OC)CC2=O (centres undefined) | -1 | . |
| CCN(CC)c1ccc(NC(=O)CSc2ccsc2[N+](=O)[O-])c(C)c1 | 3.8 | 12* |

Two of the compounds above, as labelled records:
SMILES: Cc1nnsc1-c1nnc(-c2ccccc2C(F)(F)F)o1
- CDC25B CDK2 inh: -0.74
- HIV TAR-Tat: .

SMILES: CSc1nc2c(c(=O)n1C1CCOC(C)(C)C1)C1(CCCC1)Cc1ccccc1-2 (centres undefined)
- CDC25B CDK2 inh: -1.2
- HIV TAR-Tat: 1.7

The results go on:
| structure | CDC25B CDK2 inh | HIV TAR-Tat |
| --- | --- | --- |
| O=C(Nc1ccccc1)N(Cc1ccco1)c1ccccn1 | -1 | 2.4 |
| O=C(O)c1cn2c3c(cccc3c1=O)CC2 | . | 3.2 |
| Fc1cccc(Cl)c1Cc1nnc(-c2cccs2)o1 | -2.9 | 2.3 |
| CCN(CC)c1cc2c(cc1F)c(=O)c(S(=O)(=O)c1ccc(C)cc1C)cn2C | . | 0.8 |
| Cn1c2ccccc2c2cnn(CC(=O)NCc3ccc4c(c3)OCO4)c(=O)c21 | -0.75 | 0.4 |
| N#CC1=C(N)C2=C(N3CCOCC3)CCCC2C1(C#N)C#N (centres undefined) | -2.5 | . |
| Cc1c(N2CCN(S(=O)(=O)c3ccc4c(c3)CCCC4)CC2)c(=O)n(C)c(=O)n1C | . | 0.51 |
| N#Cc1c(N)nc2c(c1N)C(C(C#N)C#N)c1cc(Br)ccc1O2 (centres undefined) | 7* | . |
| COc1ccc2cc3c(nc2c1)N(C(=O)c1ccc(S(=O)(=O)N2CCCC2)cc1)CC3 | -1.4 | 1 |
| OC(CSc1ccccc1)CN1CCN(Cc2ccc3c(c2)OCO3)CC1 (centres undefined) | -2 | . |
| CCc1ccc(S(=O)(=O)NCCc2cn3ccc(C)cc3n2)s1 | -0.46 | . |
| Cc1nc(C)c(-c2ccc(SCC(=O)Nc3ccc4c(c3)OCCO4)nn2)s1 | . | 2.4 |
| O=C(Nc1cccc2c1CCCC2)N1CCSc2ncccc21 | . | -0.23 |
| Cc1c(C(=O)NCCCN(Cc2ccco2)C2CCCC2)sc2nc3n(c(=O)c12)CCCC3 | . | 2 |
| CC(C)(C)N1CC(CO)OC1=O (centres undefined) | -1.6 | . |
| CCOC(=O)/C(C#N)=C/Nc1ccccc1OC(F)(F)F | -1.2 | . |
| Cc1ccc(C)c(N2CCN(S(=O)(=O)c3cn(C)c(C)n3)CC2)c1 | . | 1.3 |
| O=C(CCCc1nc(-c2cccs2)no1)Nc1ccccc1 | -1 | 2 |
| c1cn(CCCNc2ncnc3ccsc23)cn1 | -0.89 | . |
| O=S(=O)(CC(c1ccccc1)N1CCOCC1)c1ccc(Cl)cc1 (centres undefined) | -0.37 | . |
| CCOC(=O)/C(=C(/C)Nc1ccc(F)cc1)C1CC(=O)N(c2cc(C)on2)C1=O (centres undefined) | -1.2 | . |
| O=C(CCCCn1c(=O)[nH]c2ccccc2c1=O)N1CCN(c2ncccn2)CC1 | -1.1 | . |
| NC(=O)c1c(NC(=O)COc2ccccc2Br)sc2c1CCCC2 | -2 | 0.06 |
| Cn1c(=O)c(=O)n(C)c2cc(NS(=O)(=O)c3ccc(N4CCCC4=O)cc3)ccc21 | . | -1 |
| CN1CCN(S(=O)(=O)c2ccc3c(c2)CCN3)CC1 | . | 1.1 |
| O=C(NC1CCCCCC1)C1CCC(CNc2c(N3CCCC3)c(=O)c2=O)CC1 (centres undefined) | -0.3 | . |
| Fc1cc(Br)ccc1CSc1nc2ncccc2[nH]1 | . | 0.96 |
| O=C(Nc1nc2nc(-c3ccccc3)cc(=O)n2[nH]1)C1CC1 | -1.5 | 2.8 |
| Cc1cc(Sc2ccc(N)cc2)n2nc(C)nc2n1 | . | 3.1 |
| CCCOc1ccc(C2C3(C#N)C(N)=NC4(OCCO4)C23C#N)cc1 (centres undefined) | -0.39 | . |
| Cc1ccc(S(=O)(=O)NCCc2csc(-c3ccc(Cl)cc3)n2)s1 | . | -0.04 |
| CC(C)c1ccc(-c2noc(SCC(=O)N3CCCCC3C)n2)cc1 (centres undefined) | . | 2.3 |
| O=C(CSc1nnc2ccccn12)Nc1cccc(C(F)(F)F)c1 | -1.5 | . |
| COc1ccc(CN2C(=O)c3oc4ccc(F)cc4c(=O)c3C2c2ccc(O)c(OC)c2)cc1 (centres undefined) | 1.9 | 0.82 |
| CC(C)c1ccc(S(=O)(=O)N(C(=O)c2cccnc2)c2ccc3oc(=O)sc3c2)cc1 | -0.84 | 1.7 |
| COc1ccc(CNc2oc(COc3ccc(OC)cc3)nc2C#N)cc1 | -2 | 3.7 |
| COC(=O)c1cc2oc(C)cc2n1CC(=O)Cc1ccc(OC)cc1OC | -1.5 | 0.44 |
| O=C(c1noc2c1CSc1ccccc1-2)N1CCN(c2ccccn2)CC1 | -0.89 | 1.6 |
| O=C(CCc1nnc2ccc(N3CCCC3)nn12)Nc1ccc(F)c(F)c1 | . | 0.57 |
| OCCOCCN1CCN(C2=Nc3ccccc3Sc3ccccc32)CC1 | . | 1.4 |
| O=C(NC1CCCCC1)c1cc(S(=O)(=O)N2CCCCC2)c[nH]1 | . | 3.4 |
| CCOC(=O)c1cnc(N2CCc3ccccc32)c2ccccc12 | . | -0.15 |

Entries from the list above containing a furan ring, fused or not:
| structure | CDC25B CDK2 inh | HIV TAR-Tat |
| --- | --- | --- |
| CCOC(=O)C1=C(c2ccccc2)NC(SCC(=O)c2ccccc2)=C(C#N)C1c1ccco1 (centres undefined) | -0.25 | -0.22 |
| COc1c(OC)c2occc2c2oc(=O)ccc12 | . | 2.5 |
| O=C(Nc1ccc(Cl)c(Cl)c1Cl)c1ccco1 | -2 | . |
| O=C(Nc1ccccc1)N(Cc1ccco1)c1ccccn1 | -1 | 2.4 |
| Cc1c(C(=O)NCCCN(Cc2ccco2)C2CCCC2)sc2nc3n(c(=O)c12)CCCC3 | . | 2 |
| COC(=O)c1cc2oc(C)cc2n1CC(=O)Cc1ccc(OC)cc1OC | -1.5 | 0.44 |

An unsorted share of the library. Share with any hit: about 0.87%.
